Bioassay records as filed in PubChem BioAssay.
HNF4A DNA FP = change in binding of human HNF4 alpha to DNA; 0.3% of 360,000 active; P41235; HNF4a-FITC DNA binding, fluorescence polarization, 1 h; activity change, % at 10 µM; in the data active = activity change above about 30%, passing the limit was not always enough;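 note: controls were the assay level and a saturating level of protein; the project sought stronger binding though the title names inhibitors; some compounds called inactive have numbers as strong as hits; positive values seem to mean higher polarization but the record does not say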
Target sequence (P41235 whole entry, looked up): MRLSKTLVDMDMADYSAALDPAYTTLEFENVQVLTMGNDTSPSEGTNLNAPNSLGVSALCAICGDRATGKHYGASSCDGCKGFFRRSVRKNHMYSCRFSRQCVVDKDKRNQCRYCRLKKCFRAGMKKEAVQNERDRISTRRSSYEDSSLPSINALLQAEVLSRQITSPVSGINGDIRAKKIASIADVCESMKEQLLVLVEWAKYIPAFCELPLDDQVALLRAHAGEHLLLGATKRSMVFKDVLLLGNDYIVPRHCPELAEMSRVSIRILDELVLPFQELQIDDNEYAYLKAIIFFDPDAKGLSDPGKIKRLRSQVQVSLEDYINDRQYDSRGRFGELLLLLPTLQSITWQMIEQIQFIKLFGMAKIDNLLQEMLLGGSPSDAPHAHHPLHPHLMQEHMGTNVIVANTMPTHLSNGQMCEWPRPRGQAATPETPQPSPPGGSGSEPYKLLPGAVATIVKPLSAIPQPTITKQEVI
Vif A3G = HIV-1 Vif–A3G interaction blockers – biochemical, TR-FRET, GST-Vif 1-94, biotin-A3G peptide, dose response retest, primary screen (AID 1117319); TR-FRET GST-Vif / biotin-A3G peptide binding; higher % means a stronger effect; test concentration not given here; strong numbers were not always called active; inhibition, %, or IC50 in µM where a hit was titrated; 0.57% of 260,000 active;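 active = above the screen mean plus three standard deviations and confirmed in dose response; inconclusive = results disagree or hit not tested in dose response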;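 note: Vif residues 1-94 fused to GST binding biotinylated APOBEC3G peptide 110-148; 0% = full assay without inhibitor and 100% = GST in place of GST-Vif; retest series ran down from 100 µM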
Ecoli growth = E. coli growth inhibition | Escherichia coli growth, OD600, 23 h; hits give low values | 0.21% of 330,000 active | OD600 absorbance (no concentration beside the values) | AID 1053175;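 active = OD600 absorbance below the run mean of sample wells minus 3.6 SD, in any replicate, cut at about 0.56 in these data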;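 note: stock transfer was 300 nL into about 60 µL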
LANA-H2A inh = blocks KSHV LANA binding to histone H2A/H2B; Q9QR71; cell-free LANA-H2A/H2B peptide, fluorescence polarization; inhibition, % (no concentration beside the values); 0.6% of 320,000 active; AID 2629; in the data active = inhibition mostly above about 10%, no sharp cut-off; inactive = mostly below about 6.7%;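 note: stock transfer was 7.5 nL into about 10 µL; 0% = median of vehicle wells and 100% = median of positive control wells; one replicate is shown; the record names a cut of 25% in any replicate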
Bfl-1 A1 inh = inhibitors of the anti-apoptotic protein A1, read as caspase activation; MEF A1-2A-BIM cells, Caspase-Glo 3/7 luminescence, 3 h; percent of clofoctol response, vehicle zero; caspase activation, % (no concentration beside the values); 0.066% of 330,000 active; AID 2462;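 active = over half of replicate activation scores above 10%, or exactly half above 10 with the replicate mean above 10; inconclusive = replicate mean below 10 yet half the replicates above 10; inactive = over half of replicates below 10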;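 note: wells of about 30 µL received 50 nL stock; many hits fall short of the cut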
Beta2AR agonist = agonists of human beta-2 adrenergic receptor inducing internalization; P07550; response, % (concentration not given with the values); Am2.2-beta2AR cells, FAP receptor internalization, flow cytometry; reference of the scale not given here; 0.43% of 340,000 active;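 active = response above a set limit, near 3 SD of response in nonfluorescent compounds, cut at about 42% in these data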;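 note: stock transfer was 100 nL into about 11 µL; a reference agonist was the positive control; negative values mostly stem from fluorescent compounds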
Target sequence (P07550 whole entry, looked up): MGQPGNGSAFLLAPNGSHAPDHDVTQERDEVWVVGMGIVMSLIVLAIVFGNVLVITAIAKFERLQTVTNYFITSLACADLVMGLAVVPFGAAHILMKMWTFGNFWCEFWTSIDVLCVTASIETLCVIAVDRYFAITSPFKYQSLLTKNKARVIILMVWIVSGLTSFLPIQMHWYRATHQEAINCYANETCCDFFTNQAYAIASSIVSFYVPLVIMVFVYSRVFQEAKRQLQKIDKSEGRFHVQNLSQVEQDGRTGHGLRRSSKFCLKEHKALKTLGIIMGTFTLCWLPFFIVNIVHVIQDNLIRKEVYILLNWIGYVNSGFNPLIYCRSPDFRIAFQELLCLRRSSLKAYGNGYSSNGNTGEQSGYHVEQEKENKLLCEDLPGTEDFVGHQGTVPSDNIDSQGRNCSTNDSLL
UCH37 DUB inh = inhibitors of human deubiquitinating enzyme UCH37; Q9Y5K5; purified proteasome/UCH37, Ub-AMC cleavage fluorescence; inhibition, % (concentration not given with the values); 0.33% of 330,000 active; AID 588478;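 active = mean of two replicates above 20%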;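 note: 0% = compound-free wells with enzyme and 100% = wells lacking proteasome; stock transfer was 100 nL into about 20 µL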
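System: Proteasome-associated human UCH37 deubiquitinase; Input: 0.15 nM proteasome in added enzyme buffer; Also added: Ub-AMC substrate from 1 µM stock; Incubation: 30 min compound-proteasome preincubation then 25 min substrate reaction, room temperature; Detection: fluorescence, ex 355 nm, em 460 nm; Read-out: % inhibition of Ub-AMC cleavage fluorescence; Benchmarks: no-proteasome and no-compound wells.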
The depositor's hits bear a star; ? = inconclusive; / = not tested or not shown; & = joins results of further samples.

SMILES | LANA-H2A inh | Beta2AR agonist | Ecoli growth | Bfl-1 A1 inh | UCH37 DUB inh | HNF4A DNA FP | Vif A3G
Cc1ccc(S(=O)(=O)N2CCN(C(=O)CSc3nc4ccccc4o3)C2)cc1 | 3.7 | -2 | 0.73 | 0.0 | 4.0 | 0.3 | 28%
CCn1c(SC(C)C(=O)NC2CCCC2)nc2cc(S(N)(=O)=O)ccc21 (stereo not drawn) | 1.7 | -8 | 0.62 | -1.1 | -0.2 | -2.9 | /
COc1ccc(C(=O)NCC(=O)N=Nc2c(O)n(C)c3ccccc23)cc1OC | -4.8 | -14 | 0.72 | 0.4 | 4.4 | -1.4 | 21%
CCOc1ccc(NC(=O)C2CCCN(C(=O)Nc3ccccc3)C2)cc1 (stereo not drawn) | 2.6 | -12 | 0.69 | 0.1 | 2.4 | 4.3 | -7%
COc1ccc(C(NC(=O)c2c(F)c(F)c(F)c(F)c2F)c2ccccc2)cc1 (stereo not drawn) | -3.9 | 27 | 0.73 | 1.0 | 4.0 | 0.6 | /
CC(C(=O)N1CCOCC1)N1c2cccc3cccc(c23)S1(=O)=O (stereo not drawn) | 0.5 | -4 | 0.7 | 1.1 | -38 | -1.1 | 6%
Cc1ccc(S(=O)(=O)NC(=O)Nc2cc(C)on2)cc1 | -3.7 | 1 | 0.65 | -0.5 | 2.8 | 0.8 | -9%
Cc1c(C(=O)Nc2ccccc2[N+](=O)[O-])csc1-c1ccccc1 | 3.4 | 22 | 0.68 | -8.9 | 4.5 | 3.0 | /
O=C(Nc1ccccc1C(=O)N1CCN(c2ccccc2)CC1)c1ccco1 | 0.4 | -4 | 0.67 | -0.2 | 0.5 | 1.6 | 1%
CN1CCN(CC(=O)Nc2nnc(-c3cccs3)s2)CC1 | 0.8 | -11 | / | 1.4 | -2.8 | 3.2 | /
CCOC(=O)N1CCN(CC(O)COc2ccc(C)cc2C(C)(C)C)CC1 (stereo not drawn) | 4.3 | 3 | 0.68 | 0.2 | 1.9 | -4.0 | -7%
COc1cc(/C=C2/NC(=O)N(Cc3ccccc3F)C2=O)ccc1O | -4.4 | 4 | 0.69 | 2.2 | -1.7 | 2.0 | -11%
COC(=O)C(O)(CC(=O)Nc1cccc(SC)c1)C(F)(F)F (stereo not drawn) | 0.6 | 4 | 0.67 | 0.6 | 1.8 | 1.8 | 4%
CN(CCO)C(=O)C1CCN(c2ncc(C(F)(F)F)cc2Cl)CC1 | 4.0 | -18 | 0.7 | -2.0 | 5.3 | -0.7 | 1%
Cc1ccc(SCC(=O)OCC(=O)N(CC(C)C)c2c(N)n(Cc3ccccc3)c(=O)[nH]c2=O)cc1C | 2.3 | -6 | 0.69 | 0.4 | 0.7 | 5.5 | -10%
CCOc1ccc(Nc2nc(NCCN3CCOCC3)nc(OC)n2)cc1 | -1.0 | 5 | 0.62 | -0.3 | 1.6 | -0.2 | 2%
CC1=[N+]([O-])C(N2CCOCC2)C(O)(c2ccccc2)C1 (stereo not drawn) | -0.8 | -11 | 0.73 | 0.5 | 1.5 | -0.5 | -2%
CCOc1ccccc1C(=O)N[C@H](C(=O)Nc1cc(S(=O)(=O)N(C)C)ccc1OC)C(C)C | 1.9 | -5 | 0.68 | 0.0 | 3.2 | -3.0 | /
COc1ccc2c(c1)c(C(=O)O)c(C)n2-c1ccccc1 | 4.0 | -6 | 0.68 | 0.3 | 0.5 | -1.9 | -1%
COc1ccc(-n2nnnc2SCC(=O)N2CCCc3ccccc32)cc1OC | -0.2 | 8 | 0.69 | 0.4 | 0.5 | 0.6 | /
Cc1ccc(Oc2ncccc2/C=N/OCc2ccc(Cl)cc2Cl)cc1 | 1.8 | -4 | / | -0.4 | / | -0.3 | 27%
CCCNC(=O)CCc1c(C)nc2nc(-c3cc(OC)cc(OC)c3)nn2c1C | -0.8 | -8 | 0.73 | 1.9 | 0.6 | 3.7 | 1%
COC(=O)C1=C(C)N(Cc2ccccc2)C(=NCc2ccccc2)N[C@H]1c1cccc(F)c1 | -2.1 | 28 | / | 0.4 | -1.2 | -1.2 | /
COC(=O)COc1nsnc1N1CCOCC1 | -5.9 | -5 | 0.67 | -0.4 | 5.1 | 1.4 | -5%
COc1ccc(OC)c(C=NNC(=O)c2ccccc2NS(=O)(=O)c2cccs2)c1 | 0.5 | 18 | 0.7 | -0.2 | -46 | -0.2 | /
CN(C)c1ccc(/C=C/c2ccc3c4ccccc4ccc3[n+]2-c2ccccc2)cc1 | / | 17 | 0.24* | / | -3.9 | 28 | -6%
Cc1ccc(N(C(=O)C2COc3ccccc3O2)C(C(=O)NC2CCCCC2)c2cn(C)nc2C)cc1 (stereo not drawn) | -0.2 | / | 0.67 | -0.5 | -0.2 | / | 3%
CC1(C)CC(=O)C2=C(C1)N(c1ccc(F)cc1)C(=O)CC2c1cccnc1 (stereo not drawn) | -0.1 | 6 | 0.73 | 0.5 | 5.6 | 4.5 | -3%
CCOC(=O)c1ccc(NC(=O)c2nc[nH]c2C(=O)N(CC)CC)cc1 | -1.3 | -3 | 0.7 | 1.0 | -0.5 | -0.8 | /
CCC(=O)c1cc(F)c(N2CCN(C(=O)Cc3ccccc3)CC2)cc1C | 1.2 | 0 | 0.75 | 0.5 | 1.9 | 2.7 | 0%&-9%
CCCc1nnc(NC(=O)CN2CCOCC2)s1 | 5.5 | 2 | 0.72 | 1.2 | -0.1 | 1.0 | 4%
CCN(CC(=O)NCc1cccs1)C(=O)c1cc(S(=O)(=O)NCc2ccccc2)ccc1C | 5.2 | -5 | / | 0.0 | / | 0.3 | /
COc1ccc(C(=O)NC(C)CCc2ccccc2)cc1 (stereo not drawn) | 3.7 | -7 | 0.61 | 0.7 | 1.9 | 3.7 | -3%
O=C(NCc1ccco1)c1ccccc1O | -0.8 | 4 | 0.65 | 1.1 | -6.0 | -1.0 | 10%
NNC(=O)c1ccc(N2CCc3ccccc32)c([N+](=O)[O-])c1 | 0.3 | -3 | 0.69 | 1.3 | 13 | 0.6 | 67%
COC(=O)c1nc2n(n1)C(c1ccc(OC)c(OC)c1OC)C1=C(CCCC1=O)N2 (stereo not drawn) | 3.1 | -7 | 0.73 | -0.1 | 2.4 | 0.1 | 3%
Cc1c(N=C2C(=O)Nc3ccccc32)c(=O)n(-c2ccccc2)n1C | 3.6 | 4 | 0.75 | 1.3 | 8.9 | -1.2 | 6%
CCc1cccc(NC(=O)Cn2ncn3c(cc4ccccc43)c2=O)c1 | 1.1 | -2 | 0.73 | 0.1 | -4.7 | 0.6 | 69%
Cc1cccc(OCC(=O)NCC(=O)N/N=C/c2cccnc2)c1 | 0.9 | -6 | / | 0.0 | / | -0.7 | -15%
CC(c1ccccc1)n1cc(C(=O)NCc2ccncc2)nn1 (stereo not drawn) | -2.5 | 1 | 0.74 | 0.4 | 2.0 | 0.2 | 1%
COc1cn(-c2ccccc2)nc1C(=O)NCc1ccc(C)cc1 | -1.4 | 1 | 0.68 | -0.6 | -2.3 | 8.9 | -6%
CCOC(=O)C1CCN(C(=O)CSCCSCC(=O)N2CCC(C(=O)OCC)CC2)CC1 | 2.8 | -3 | 0.7 | 0.4 | -0.2 | -1.2 | -1%
Cn1cccc1/C=C(/C#N)c1ccc(F)cc1 | 0.1 | -9 | 0.7 | 1.6 | 4.2 | 4.8 | /
COc1ccc(CC(=O)NC2CC(C)(C)NC(C)(C)C2)cc1OC | 4.8 | 10 | 0.67 | 1.4 | -3.1 | 1.1 | /
CCC(=O)NNc1nc2c(C)cc(C)cc2s1 | 4.7 | -8 | 0.7 | 0.8 | 4.4 | 2.4 | /
O=S(=O)(Oc1ccc(Cl)cc1)c1cccc2cccnc12 | -3.1 | -5 | 0.71 | 0.2 | 4.0 | 2.2 | 2%
COCCNC(=O)COC(=O)/C=C/c1c(C)nn(Cc2ccc(Cl)cc2Cl)c1Cl | -2.5 | 3 | / | 1.2 | 5.2 | 2.1 | -2%
CS(=O)(=O)N(CC(=O)N1CCCCC1)Cc1ccc(Cl)cc1 | 3.8 | 2 | 0.67 | -2.6 | 2.4 | 2.2 | 1%
CCOC(=O)c1nn(-c2ccccc2)c2nc(Nc3ccccc3)cc(=O)n12 | -2.3 | 2 | 0.66 | -0.3 | -2.3 | 4.0 | 12%
COC(=O)c1sccc1NC(=S)Nc1ccc(C)cc1 | 0.8 | 7 | 0.67 | -0.3 | 1.6 | 3.8 | -1%
Cc1nc(NC(=O)CN2CCC(O)(c3ccc(F)cc3)CC2)sc1C | 1.4 | 6 | 0.68 | -0.5 | 4.6 | 2.2 | 20%
COc1ccc(OCC(=O)Nc2ccccc2C(=O)N2CCCC2)cc1 | -2.6 | 0 | 0.71 | -0.2 | 0.7 | -1.8 | 12%
O=C(Cc1cccs1)N/N=C\c1ccc([N+](=O)[O-])s1 | -1.0 | -2 | / | 0.4 | / | -1.5 | ?
C=C(C)Cn1c(-c2cccs2)n[nH]c1=S | -7.7 | 1 | 0.68 | -0.2 | -12 | -1.3 | /
O=S(=O)(N(Cc1ccccc1)[C@H](CO)Cc1ccccc1)N(Cc1ccccc1)[C@H](CO)Cc1ccccc1 | -0.9 | 0 | / | -0.9 | -1.4 | -4.1 | /
COc1ccc(CN2CC(COCc3ccccc3)Oc3ccccc3S2(=O)=O)cc1 (stereo not drawn) | / | -11 | 0.75 | / | 4.5 | -4.7 | 2%
O=C(Nn1c(-c2ccccc2)nc2ccccc2c1=O)c1cccs1 | 4.3 | -1 | 0.7 | -0.3 | 5.5 | -1.3 | /
CC(=O)Nc1ccc(NC(=S)NC(=O)/C=C/c2ccccc2)cc1 | 0.5 | -7 | 0.72 | 0.2 | 6.4 | 2.0 | -14%
Cc1ccc(S(=O)(=O)NCc2csc(C)n2)c(C)c1 | -5.1 | 0 | 0.73 | 0.5 | -1.8 | -3.7 | -4%
CN(C)CCCN(C(=O)CCSc1ccccc1)c1nc2cc3c(cc2s1)OCO3 | -1.3 | -3 | 0.61 | -0.5 | 2.3 | 6.2 | 0%

Additional records follow.
SMILES | LANA-H2A inh | Beta2AR agonist | Ecoli growth | Bfl-1 A1 inh | UCH37 DUB inh | HNF4A DNA FP | Vif A3G
O=C(CN1CCN(Cc2ccccc2Cl)C1=O)NCc1cccnc1 | 1.7 | 0 | 0.64 | 1.4 | 2.9 | -1.0 | -3%
Cc1ccc(C)c(NC(=O)Cn2nnc(C(=O)NCc3cccs3)c2N)c1 | 0.3 | 8 | 0.76 | -0.9 | 2.3 | -2.8 | -2%
O=c1oc2ccccc2c(O)c1/C=N/c1ccccn1 | -3.8 | -2 | / | 0.0 | / | -3.0 | 10%
Cc1cccc(Cl)c1OCCCCn1ccnc1 | 1.9 | -1 | 0.64 | 0.3 | 5.6 | -1.7 | 4%
O=C(O)Cc1ccc(C(=O)c2ccccc2)s1 | 3.2 | 1 | 0.71 | 0.2 | -0.5 | -1.7 | 70%
Cc1cc(NC(=O)CCC(=O)N(Cc2ccco2)C(C(=O)NC2CCCCC2)c2cccs2)no1 (stereo not drawn) | 1.4 | -6 | 0.73 | 0.3 | 5.3 | 1.9 | 0%
Cc1ccc([N+](=O)[O-])cc1NC(=O)CSc1nncn1-c1ccccn1 | 3.3 | -11 | 0.69 | -0.3 | -4.6 | 2.3 | /
